Screening results as filed in PubChem BioAssay.
A1 inh = blocks A1 activity. 0.51% of 21,000 active. MEF A1-2A-BIM cells, caspase-Glo luminescence, 3 h; percent of clofoctol signal, DMSO as zero. AID 2241. caspase activation, % (concentration not given with the values);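 active means most replicate scores above 10, or exactly half above 10 with mean activity above 10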;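 further: effector caspase 3 and 7 activity cleaving a DEVD luciferin substrate; 50 nL library stock added to about 30 µL; numbers are from one replicate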
BJeLR viab HTS = compounds reducing viability of BJeLR cells; 0.64% of 30,000 active; AID 2275; BJeLR fibroblasts viability, CellTiterGlo ATP luminescence, 48 h; HRASV12, hTERT and SV40 LT/ST transformed; viability loss activity score, % (concentration not given with the values); in the data active means viability loss activity score above about 50%; about a fifth of its hits are not listed in these tables;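 further: higher score means fewer live cells and less ATP luminescence; stock transfer was 50 or 100 nL into about 30 µL; 0% = vehicle wells and 100% = a reference killing control; one replicate is shown; the record names a cut of 85%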
The depositor's hits bear a star; . = not tested or not shown. Only part of the results is shown. The share of hits here may be higher or lower than overall.

SMILES	A1 inh	BJeLR viab HTS
C[C@@H]1CN([C@H](C)CO)C(=O)c2cccc(NS(C)(=O)=O)c2O[C@H]1CN(C)C(=O)Nc1cccc2ccccc12	.	-1.3
COc1ccc(NC(=O)C2C=C3C=CC(=O)C=C3OC2=Nc2ccc(C(=O)O)cc2)cc1 (stereo not drawn)	-2.0	4.0
C[C@@H]1CN([C@@H](C)CO)C(=O)c2cccc(NC(=O)Nc3ccccc3)c2O[C@@H]1CN(C)Cc1ccc(C(=O)O)cc1	.	-3.5
COc1ccc2[nH]c3c(=O)n(CCC(=O)NCCc4ccc(OC)c(OC)c4)c(=S)[nH]c3c2c1	0.6	-1.9
COc1cccc(NC(=O)c2cc3c(s2)-c2c(C)cccc2OC3)c1	-5.2	1.5
CCc1ccc(N2CC(O)(c3ccccc3)[N+]3=C2CCCC3)cc1 (stereo not drawn)	-1.1	3.8
COc1ccc(S(=O)(=O)N(C)C[C@@H]2Oc3c(NC(=O)C4CCOCC4)cccc3C(=O)N([C@H](C)CO)C[C@@H]2C)cc1	.	0.0
COc1cccc(OCCSc2nc3ccccc3s2)c1	-4.0	-1.9
COc1ccc(CN(C)C[C@H]2Oc3c(NC(=O)C4CCCCC4)cccc3C(=O)N([C@@H](C)CO)C[C@@H]2C)cc1	.	0.5
CCc1ccc2[nH]c(C(=O)Nc3ccc(C(F)(F)F)c(C#N)c3)cc2c1	0.7	8.6

Overlap with the part before: four compounds, followed by the next part.
SMILES	A1 inh	BJeLR viab HTS
COc1ccc(S(=O)(=O)N(C)C[C@@H]2Oc3c(NC(=O)C4CCOCC4)cccc3C(=O)N([C@H](C)CO)C[C@@H]2C)cc1	.	0.0
COc1cccc(OCCSc2nc3ccccc3s2)c1	-4.0	-1.9
COc1ccc(CN(C)C[C@H]2Oc3c(NC(=O)C4CCCCC4)cccc3C(=O)N([C@@H](C)CO)C[C@@H]2C)cc1	.	0.5
CCc1ccc2[nH]c(C(=O)Nc3ccc(C(F)(F)F)c(C#N)c3)cc2c1	0.7	8.6
Cc1ccc(S(=O)(=O)N(C)C[C@H]2Oc3c(NC(=O)c4nc5ccccc5s4)cccc3C(=O)N([C@H](C)CO)C[C@H]2C)cc1	.	-0.7
C[C@@H]1CN([C@@H](C)CO)C(=O)c2cccc(NS(=O)(=O)c3cn(C)cn3)c2O[C@H]1CN(C)S(=O)(=O)c1ccc(Cl)cc1	.	0.6
C[C@H](CO)N1C[C@H](C)[C@H](CN(C)Cc2ccncc2)Oc2ccc(NS(=O)(=O)c3ccccc3)cc2C1=O	0.1	3.6
CCOc1ccccc1N(C)C(=O)COc1cc(=O)n(C)c2ccccc12	.	-2.1
COc1ccccc1N1CCN(CCCCN2C(=O)c3ccccc3C2=O)CC1	-0.6	6.5
CCC(=O)OCC(=O)C1(OC(=O)CC)[C@H](C)C[C@H]2[C@H]3[C@H]([C@@H](O)C[C@@]21C)[C@@]1(C)C=CC(=O)C=C1C[C@H]3Cl (stereo partly drawn)	-0.5	-4.4
Cc1cc(C(=O)Nc2cccc3c2O[C@@H](CN(C)S(=O)(=O)c2ccc(Cl)cc2)[C@@H](C)CN([C@@H](C)CO)C3=O)n(C)n1	.	-3.6
CC(C)NC(=O)N(C)C[C@@H]1Oc2ccc(NC(=O)Nc3cccc4ccccc34)cc2C(=O)N([C@H](C)CO)C[C@H]1C	0.0	3.4
CCCN(C(=O)Cc1noc2ccc(C)cc12)c1ccc(F)cc1	-0.4	-4.7
C[C@H](CO)N1C[C@H](C)[C@H](CN(C)Cc2ccc(C(F)(F)F)cc2)Oc2ccc(NS(=O)(=O)c3cn(C)cn3)cc2C1=O	0.2	-5.8
COC(CNC(=O)c1cccc(N2CCCC2=O)c1)OC	.	-2.1
O=C1NC(=O)C(=Cc2ccc(-c3ccccc3)o2)C(=O)N1	1.6	27
CN1C(=O)C2C=CC=CC2N=C1SCc1ccccc1F (stereo not drawn)	0.3	-1.9
CCOC(=O)c1sc2nc(SCC(=O)C(C)(C)C)n(N)c(=O)c2c1C	0.0	-3.2
CC1=C(C(=O)Nc2ccc(F)cc2)C(c2ccc(F)cc2)C2=C(CC(c3ccccc3)CC2=O)N1 (stereo not drawn)	3.1	-2.3
COc1ccc(S(=O)(=O)Nc2ccc3c(c2)C(=O)N([C@@H](C)CO)C[C@H](C)[C@H](CN(C)S(=O)(=O)c2ccc(Cl)cc2)O3)cc1	0.2	1.9
COc1ccc(S(=O)(=O)N(C)C[C@H]2Oc3c(NC(=O)Nc4ccccc4)cccc3C(=O)N([C@@H](C)CO)C[C@@H]2C)cc1	.	-2.0
C[C@H]1CN([C@@H](C)CO)C(=O)c2cc(NC(=O)Nc3cccc4ccccc34)ccc2O[C@H]1CN(C)Cc1ccc(C(=O)O)cc1	0.0	2.0
O=C(CSCC(=O)c1ccc(-c2ccccc2)cc1)Nc1ccc2ccccc2c1	0.6	-2.2
Cc1cc(C)n2nc(SCCC(=O)NCc3c(F)cc(F)cc3F)nc2n1	0.1	-2.2
C=C(C)c1cccc(C(C)(C)NC(=O)NC23CC4CC(CC(C4)C2)C3)c1	0.5	9.2
C[C@@H]1CN([C@H](C)CO)C(=O)c2cc(NS(=O)(=O)c3ccc(F)cc3)ccc2O[C@H]1CN(C)C(=O)Nc1ccc2c(c1)OCO2	0.5	-3.9
C[C@H]1CN([C@@H](C)CO)C(=O)c2cccc(NS(=O)(=O)c3ccc(F)cc3)c2O[C@H]1CN(C)CC1CCCCC1	.	-0.7
COc1ccc(CN(C)C[C@@H]2Oc3ccc(NC(=O)Cc4cn(C)c5ccccc45)cc3C(=O)N([C@@H](C)CO)C[C@H]2C)cc1	-0.4	1.5
Clc1cccc(-n2c(SCC3CC3)nnc2C2CC2)c1	0.9	-1.4
CN=C1S/C(=C\c2cn(CC(=O)O)c3ccccc23)C(=O)N1C	0.7	2.1
C[C@@H]1CN([C@H](C)CO)C(=O)c2cc(NC(=O)Nc3ccccc3)ccc2O[C@H]1CN(C)Cc1ccc(C(=O)O)cc1	-0.5	5.0
C[C@H]1CN([C@@H](C)CO)C(=O)c2cccc(NC(=O)C3CCOCC3)c2O[C@@H]1CN(C)Cc1ccccc1	.	0.7
Cc1noc(C)c1NC(=O)Nc1cccc2c1O[C@@H](CN(C)S(=O)(=O)c1cn(C)cn1)[C@@H](C)CN([C@@H](C)CO)C2=O	.	3.7
C[C@@H]1CN([C@@H](C)CO)C(=O)c2cccc(NS(C)(=O)=O)c2O[C@H]1CN(C)CC1CCCCC1	.	2.5

Brought forward from above: four compounds, followed by the next part.
SMILES	A1 inh	BJeLR viab HTS
C[C@@H]1CN([C@H](C)CO)C(=O)c2cc(NC(=O)Nc3ccccc3)ccc2O[C@H]1CN(C)Cc1ccc(C(=O)O)cc1	-0.5	5.0
C[C@H]1CN([C@@H](C)CO)C(=O)c2cccc(NC(=O)C3CCOCC3)c2O[C@@H]1CN(C)Cc1ccccc1	.	0.7
Cc1noc(C)c1NC(=O)Nc1cccc2c1O[C@@H](CN(C)S(=O)(=O)c1cn(C)cn1)[C@@H](C)CN([C@@H](C)CO)C2=O	.	3.7
C[C@@H]1CN([C@@H](C)CO)C(=O)c2cccc(NS(C)(=O)=O)c2O[C@H]1CN(C)CC1CCCCC1	.	2.5
O=C1c2ccccc2C(=O)N1CCCN1CCN(c2nccc(C(F)(F)F)n2)CC1	.	4.6
CCC1CCCCN1C(=O)Cn1c(=O)n(-c2cc(F)ccc2F)c(=O)c2sccc21 (stereo not drawn)	.	0.4
C[C@@H]1CN([C@H](C)CO)C(=O)c2cc(NC(=O)C3CCCCC3)ccc2O[C@H]1CN(C)CC1CCCCC1	0.1	-5.9
Cc1cc(Cl)ccc1OC(C)C(=O)N1CCN(c2ccccc2F)CC1 (stereo not drawn)	0.4	-2.1
O=C(Cn1nc(-c2ccc(Cl)cc2)ccc1=O)NCc1ccco1	0.3	1.1
Cc1ccc(CNC(=O)c2cc(=O)[nH]c3ccc(Br)cc23)cc1	0.2	0.0
CC(C)NC(=O)Nc1ccc2c(c1)C(=O)N([C@H](C)CO)C[C@@H](C)[C@H](CN(C)Cc1ccc(C(F)(F)F)cc1)O2	-0.3	-2.7
CCC(Sc1nc(Nc2ccc(F)cc2)c2ccccc2n1)C(=O)Nc1ccc2c(c1)OCO2 (stereo not drawn)	-0.3	5.3
CC(C)NC(=O)Nc1cccc2c1O[C@H](CN(C)C(=O)Nc1ccccc1)[C@@H](C)CN([C@H](C)CO)C2=O	.	-2.3
COc1ccc(NC(=O)N(C)C[C@@H]2Oc3ccc(NS(=O)(=O)c4c(C)noc4C)cc3C(=O)N([C@H](C)CO)C[C@@H]2C)cc1	0.0	0.7
CCc1ccc(C(=O)Oc2ccc(C#N)cc2)cc1	-0.2	3.0
CCOC(=O)c1c(-c2cccs2)csc1/N=C/c1c(O)n(C)c2ccccc12	0.1	0.1
NC(=O)/C(=C/c1ccc(Cl)cc1)NC(=O)c1ccccc1	-0.1	0.6
CCn1cc(C(=O)N2CC(C)CC(C)C2)c(=O)c2cc(S(=O)(=O)N3CC(C)CC(C)C3)ccc21 (stereo not drawn)	.	0.3
COc1ccc(NC(=O)N(C)C[C@H]2Oc3c(NC(=O)C4CC4)cccc3C(=O)N([C@@H](C)CO)C[C@@H]2C)cc1	.	-0.8
O=c1c(-c2ccc(O)cc2)coc2cc(O[C@@H]3O[C@H](CO)[C@@H](O)[C@H](O)[C@H]3O)cc(O)c12	-0.7	-2.7
CN(c1cc(C(F)(F)F)ccn1)N1C(=O)c2ccccc2C1=O	0.2	-4.3
C[C@H](CO)N1C[C@H](C)[C@@H](CN(C)Cc2ccc(Cl)c(Cl)c2)Oc2ccc(NC(=O)Nc3ccc(F)cc3)cc2C1=O	-0.5	0.1
C[C@@H]1CN([C@H](C)CO)C(=O)c2cccc(NC(=O)c3cnccn3)c2O[C@H]1CN(C)S(=O)(=O)c1cn(C)cn1	.	-6.4
C[C@@H]1CN([C@@H](C)CO)C(=O)c2cc(NC(=O)Nc3cccc4ccccc34)ccc2O[C@@H]1CN(C)C(=O)Nc1cccc2ccccc12	0.4	-6.0
C[C@H]1CN([C@@H](C)CO)C(=O)c2cccc(NC(=O)NC3CCCCC3)c2O[C@@H]1CN(C)S(=O)(=O)c1cccs1	.	-0.5
C[C@H]1CN([C@@H](C)CO)C(=O)c2cccc(NC(=O)c3ccncc3)c2O[C@H]1CN(C)C(=O)Nc1ccc2c(c1)OCO2	.	3.5
C[C@H]1CN([C@@H](C)CO)C(=O)c2cccc(NC(=O)C3CCCCC3)c2O[C@H]1CN(C)Cc1ccc(-c2ccccc2)cc1	.	3.1
COc1ccc(NC(=O)Nc2cccc3c2O[C@H](CN(C)C(=O)Nc2cccc4ccccc24)[C@@H](C)CN([C@H](C)CO)C3=O)cc1	.	-1.3
COc1ccc(S(=O)(=O)N(CCC(=O)O)Cc2ccco2)cc1OC	0.0	-4.2
Cn1cccc1Cc1nnc(SCC(=O)Nc2ccccc2C(F)(F)F)n1-c1ccc(F)cc1	0.3	-5.2
C[C@H]1CN([C@@H](C)CO)C(=O)c2cc(NC(=O)Cc3ccccc3)ccc2O[C@H]1CN(C)S(=O)(=O)c1cccs1	0.3	1.7
COc1ccc(C(O)CNC(=O)/C=C/c2ccccc2)cc1 (stereo not drawn)	0.0	14
CCOC(=O)C1=C(C)N(C(=O)Oc2ccccc2)C(SC)=NC1c1ccccc1 (stereo not drawn)	.	0.3
CNC[C@H]1Oc2c(NS(=O)(=O)c3cccs3)cccc2C(=O)N([C@@H](C)CO)C[C@@H]1C	.	1.5
C[C@@H]1CN([C@H](C)CO)C(=O)c2cc(NC(=O)Nc3ccc(F)cc3)ccc2O[C@@H]1CN(C)Cc1ccc(C(=O)O)cc1	-0.3	0.0
Nn1c(Cc2ccccc2)nc2sc3c(c2c1=O)CCCC3	-0.5	-1.0
C[C@@H]1CN([C@H](C)CO)C(=O)c2cc(NC(=O)Cc3ccccc3)ccc2O[C@H]1CN(C)Cc1ccc(-c2ccccc2)cc1	0.2	-6.9
Cc1ccc(CN2C(=O)CCC2C(=O)NC(C)C)cc1 (stereo not drawn)	0.3	2.3
COc1ccc(NC(=O)Nc2cccc3c2O[C@H](CN(C)C(=O)Nc2ccc(F)cc2)[C@H](C)CN([C@H](C)CO)C3=O)cc1	.	-1.3
CCN(Cc1ccccc1)C(=O)c1cccnc1	-0.3	-2.9
COc1ccc(NC(=O)Nc2cccc3c2O[C@@H](CN(C)Cc2ccc(Cl)c(Cl)c2)[C@H](C)CN([C@H](C)CO)C3=O)cc1	.	-2.4
COc1ccc2c(=O)ccoc2c1	0.5	-3.5
COc1ccc(-c2coc3cc(O)ccc3c2=O)c(OC)c1	0.4	-0.1
O=C(CSc1nc2ccccc2nc1N1CCCC1)NCCc1ccc(Cl)cc1	-0.5	-1.8

As a working copy, two of the compounds above.
SMILES	A1 inh	BJeLR viab HTS
C[C@@H]1CN([C@H](C)CO)C(=O)c2cc(NC(=O)Cc3ccccc3)ccc2O[C@H]1CN(C)Cc1ccc(-c2ccccc2)cc1	0.2	-6.9
Cc1ccc(CN2C(=O)CCC2C(=O)NC(C)C)cc1 (stereo not drawn)	0.3	2.3

(listing goes on)
SMILES	A1 inh	BJeLR viab HTS
O=C(CSCC(=O)c1ccccc1)c1ccccc1	-4.3	-2.8
c1ccc2[nH]c(SCCSc3nc4ccccc4[nH]3)nc2c1	-0.6	-2.5
O=C(O)CCNC(=O)c1ccc(NC(=O)Cc2ccc(Cl)cc2)cc1	.	1.5
C[C@@H]1CN([C@@H](C)CO)C(=O)c2cccc(NC(=O)NC3CCCCC3)c2O[C@H]1CN(C)C(=O)Nc1ccc(F)cc1	.	-6.9
CCCc1occc(=O)c1CC=O	-0.3	-4.1
C[C@H](CO)N1C[C@H](C)[C@H](CN(C)Cc2ccc(-c3ccccc3)cc2)Oc2ccc(NC(=O)Nc3ccc(F)cc3)cc2C1=O	-0.4	-2.4
Nc1ncnc2c1c(I)cn2C1OC(CO)C(O)C1O (stereo not drawn)	26*	63*
